Screening data from PubChem BioAssay.
gsp antagonist: gsp mutant antagonism. gsp-mutant cells, cAMP HTRF, 30 min; control for the full effect not named in the record. Potency, µM (titrated, usually from 76.9 µM), for the others: at the top dose activity change, negative = inhibition, usual class: inhibitors. hit rate 0.4% among 340,000. AID 624288; active = falling curve of any shape with a large fitted effect; inconclusive = falling curve, mostly with a smaller effect; inactive = flat or rising curve; cell line not stated here;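 also: intracellular cAMP measured with PDE inhibitor Ro 20-1724 present during compound exposure; potency is read from the fitted curve at half-maximal effect; % is scaled to controls: 0 for no effect and ±100 for the full control effect; nearly all actives have a fitted effect of over 65% in size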
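HTRF cAMP read-out (cAMP-d2 plus anti-cAMP antibody-K in lysis buffer, 30 min RT). Before lysis, cells are exposed to compounds with […] for 30 min at 37C in DPBS containing Ca/Mg, BSA and Tween 20.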
D2 potentiator: potentiates the human D2 dopamine receptor allosterically. potentiation, % (concentration not given with the values). hit rate 0.23% among 360,000. DiscoveRx D2 beta-arrestin cells, luminescence, 90 min; 100% = 57 uM dopamine signal. AID 624464. P14416; active = potentiation of 50% or more; inconclusive = 30% to 50%; inactive = 30% or less;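 also: compound concentration not given in the record; tested on top of an EC20 dose of dopamine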
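PathHunter beta-arrestin assay in DiscoveRx D2 cells. Compounds were added with an EC20 of dopamine (50 nM final) for 90 min at 37 deg C. Luminescence was read 1 h after detection reagent, with 57 uM dopamine as the EC100 control.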
ClpP mod: qHTS Assay for Activators of ClpP; purified B. subtilis ClpP, FRET peptide cleavage, 20 min; AID 651965, 2013; Potency, µM (doses to about 57.5 µM), for the others: at the top dose activity change, negative = active; hit rate 1.9% among 340,000; ATP-dependent Clp protease proteolytic subunit (Bacillus subtilis (strain 168)), P80244; active = well fitted falling curve with a large enough effect; inconclusive = small, poorly fitted or top-dose-only effect; inactive = no such curve, though single readings can be large or run the other way; also: potency is read from the fitted curve at half-maximal effect; the source files actives as falling curves though it sought activators and does not explain the sign; nearly all actives have a fitted effect of over 65% in size; many hits overshoot -100%
Target sequence (P80244 whole entry, looked up): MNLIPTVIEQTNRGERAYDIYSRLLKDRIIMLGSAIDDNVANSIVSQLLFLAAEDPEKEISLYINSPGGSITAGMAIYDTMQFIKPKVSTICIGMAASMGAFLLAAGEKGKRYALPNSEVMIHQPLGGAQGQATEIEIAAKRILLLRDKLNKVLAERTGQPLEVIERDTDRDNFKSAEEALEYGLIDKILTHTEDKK
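Purified B. subtilis ClpP, 10 microg/mL final in Tris/HCl pH8 with KCl, BSA, glycerol and Tween-20, cleaved an Abz/nitrotyrosine-quenched decapeptide. Fluorescence (ex 320, em 430) was read at 0 and 20 min at room temperature. Delta was normalized to 5.8 microM ADEP and DMSO/no-enzyme controls.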
Sfp PPTase inh: inhibitors of Bacillus subtilis Sfp phosphopantetheinyl transferase; hit rate 3.5% among 310,000; Biochemical Sfp PPTase activity, qHTS; AID 1490; Potency, µM, inactives show max response, negative = inhibition, actives largely listed as inhibitors; Q9F4F7; active = well fitted inhibition curve with a large enough effect; inconclusive = small, poorly fitted or top-dose-only effect, or another doubt; inactive = no such curve, though single readings can be large or run the other way;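 also: the enzyme is Sfp with the accession as filed and its product quenches rhodamine fluorescence; potency is read from the fitted curve at half-maximal effect; 0% = enzyme reaction without inhibitor and -100% = no enzyme wells; top concentration of the series not given in the record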
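With Hepes-Na pH 7.6 buffer containing 10 mM MgCl2, Sfp (15 nM) modified BHQ-2-YbbR (12.5 uM) using rhodamine-CoA (5 uM). Two reads 30 minutes apart at 525/598 nm yielded each well's rate.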
gsp ag: agonists of gsp mutant (McCune-Albright syndrome) | gsp mutant cells, cAMP HTRF, 30 min; control for the full effect not named in the record | Potency, µM (highest dose often 76.9 µM), for the others: at the highest dose activation (cAMP increase), hits mostly activators | hit rate 0.13% among 340,000; active = well fitted activation curve with a large enough effect; inconclusive = small, poorly fitted or top-dose-only effect, or another doubt; inactive = no such curve, though single readings can be large or run the other way; cell line not stated here;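 also: phosphodiesterase inhibitor Ro 20-1724 added with compounds to block cAMP breakdown; potency is read from the fitted curve at half-maximal effect; nearly all actives have a fitted effect of over 60% in size; about a fifth of the inactives were tested at one dose only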
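Cells in DMEM/10% FBS with G418 were pretreated with compounds in DMSO plus […] (300 uM stock) for 30 min at 37C. cAMP was measured by HTRF (cAMP-d2 plus anti-cAMP antibody-K) after 30 min at room temperature.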
TRPV1 PAM: enhances activation of the human vanilloid receptor TRPV1 | hit rate 0.02% among 320,000 | Q8NER1 | potentiation, % at 8.33 µM | AID 540277 | TRPV1-expressing cells, Fluo-8 calcium influx, capsaicin EC20 potentiation; host cell line not named in the record; control for the full effect not named in the record; active means potentiation above 80%; inconclusive means 30% to 80%; inactive means below 30%; also: 0% is about no effect
Target sequence (Q8NER1 whole entry, looked up): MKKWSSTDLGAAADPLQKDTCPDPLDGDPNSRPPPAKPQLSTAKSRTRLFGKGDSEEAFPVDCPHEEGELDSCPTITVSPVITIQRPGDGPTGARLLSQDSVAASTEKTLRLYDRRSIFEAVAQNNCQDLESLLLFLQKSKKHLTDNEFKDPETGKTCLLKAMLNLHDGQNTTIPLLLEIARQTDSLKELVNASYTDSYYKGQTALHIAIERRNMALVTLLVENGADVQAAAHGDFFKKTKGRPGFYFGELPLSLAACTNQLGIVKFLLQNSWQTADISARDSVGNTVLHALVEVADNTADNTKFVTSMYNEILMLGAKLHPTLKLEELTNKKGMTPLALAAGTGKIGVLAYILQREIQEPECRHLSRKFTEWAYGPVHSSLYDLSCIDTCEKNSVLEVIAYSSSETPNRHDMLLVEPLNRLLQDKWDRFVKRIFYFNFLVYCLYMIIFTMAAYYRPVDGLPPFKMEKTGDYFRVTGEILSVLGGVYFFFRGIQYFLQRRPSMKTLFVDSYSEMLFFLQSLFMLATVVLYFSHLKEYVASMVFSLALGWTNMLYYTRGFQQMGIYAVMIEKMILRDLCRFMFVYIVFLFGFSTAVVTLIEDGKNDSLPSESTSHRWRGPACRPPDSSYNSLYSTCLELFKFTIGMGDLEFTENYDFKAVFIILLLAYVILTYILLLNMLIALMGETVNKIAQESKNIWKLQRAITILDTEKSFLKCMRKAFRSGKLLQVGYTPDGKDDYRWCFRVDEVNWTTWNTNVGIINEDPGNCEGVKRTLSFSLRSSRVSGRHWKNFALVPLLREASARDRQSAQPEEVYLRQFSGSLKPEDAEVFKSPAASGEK
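TRPV1-expressing cells were cultured overnight at 35.5C and loaded with Fluo-8 calcium dye for 40 to 90 min at room temperature. After a 10 s baseline, compound was added and calcium influx was read kinetically for 3 min (ex 480/em 520 nm).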
Menin MLL FP FL: menin-MLL binding inhibition, fluorescein peptide; AID 1766; 290,000 tested, under 10 active; FP activity change, % at 61.4 µM; Fluorescence polarization, fluorescein-MLL peptide displacement from menin; inconclusive = falling polarisation curve, or a change in total fluorescence; inactive = total fluorescence flat and polarisation flat or rising; no compound was filed as active; the % refers to the polarisation; negative = inhibition;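 also: % of control where 0% means no effect; inhibitors lower the polarisation; unlabelled MLL peptide was the positive control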
An asterisk follows results filed as active; ? = inconclusive; / = not tested or not shown; & = joins results of further samples; [ ] = remark or other dose.

Every second line gives: gsp antagonist, D2 potentiator, ClpP mod, Sfp PPTase inh, gsp ag, TRPV1 PAM, Menin MLL FP FL
O=C(NCC(c1ccco1)N1CCN(c2ccccc2F)CC1)C(=O)NC1CCCC1 (stereo unspecified)
  7%, 2, 3.1%, /, 0%, -5, /
O=C(Cn1cnc2c(cnn2-c2ccc(Cl)cc2)c1=O)N1CCN(c2ccccc2)CC1
  -4%, 7, 0.1%, -10%, -7%[15.4 µM], -9, -0.1
CC(C)(C)CC(C)(C)c1ccc(O)c(Cc2ccc(Cl)cc2Cl)c1
  -10%, 11, -2.5%, 14%, /, /, -0.8
CS(=O)(=O)c1ccc(Cl)c(NC(=O)CCN2C(=O)C3CC=CCC3C2=O)c1 (stereo unspecified)
  3%, 0, -1.4%, /, 3%, 4, /
COC(=O)c1cc2c(ccn2-c2ccc(F)cc2)n1Cc1cccc(OC)c1
  4%, -6, 28µM*, 16%, ?, 21, 1.8
O=[N+]([O-])c1cccn2cc(-c3ccc(Br)cc3)nc12
  5%, -14, ?, -4%, -5%[15.4 µM], -3, -1.3
Cc1cccc(S(=O)(=O)NC(Cc2c[nH]c3ccccc23)C(=O)O)c1 (stereo unspecified)
  4%, 0, 1.4%, 6%, -48%[inhibitor], 15, 1.6
COc1ccc(CNC(=O)CN(c2ccccc2OC)S(=O)(=O)c2cccs2)cc1
  -18%, 4, 1.4%, /, -13%, /, /
Cc1ccc([N+](=O)[O-])cc1NC(=O)CCCOc1ccccc1
  11%, -10, -6.5%, 3%, 2%, 1, 3.2
Cc1occc1-c1nnc(SCC(=O)c2c(N)n(C3CC3)c(=O)[nH]c2=O)n1C
  13%, -4, -0.2%, /, ?, 8, /
O=C(O)c1ncc(Cl)c(Cl)c1Cl
  8%&8%, -1&-1, 1.9%&-0.1%, 4%&15%, -41%&-12%[inhibitor], 0&-5, -0.6&3.1
Cc1cc(C)n2nc(C(=O)OCC(=O)NCc3ccc(F)cc3)nc2n1
  -5%, 4, -1.3%, /, 6%, /, /
CC(C)[C@@H]1NC(=O)c2cc([N+](=O)[O-])cc(F)c2NCCC[C@@H](C(N)=O)NC(=O)[C@H](CO)NC1=O
  /, /, /, 2%, /, 16, 1.3
Cc1ccc(NC(=O)c2cnccn2)cc1S(=O)(=O)N1CCCCCC1
  1%, -9, -0.2%, /, -2%[15.4 µM], /, /
CCCc1nc(SCC(=O)NC2CC2)c2c(C)c(C)sc2n1
  7%, 2, /, 7%, ?, 0, /

Limited to gsp antagonist and D2 potentiator, for some of the entries so far:
Structure,gsp antagonist,D2 potentiator
Cc1occc1-c1nnc(SCC(=O)c2c(N)n(C3CC3)c(=O)[nH]c2=O)n1C,13%,-4
O=[N+]([O-])c1cccn2cc(-c3ccc(Br)cc3)nc12,5%,-14
O=C(Cn1cnc2c(cnn2-c2ccc(Cl)cc2)c1=O)N1CCN(c2ccccc2)CC1,-4%,7
CC(C)(C)CC(C)(C)c1ccc(O)c(Cc2ccc(Cl)cc2Cl)c1,-10%,11

Next section:
Every second line gives: gsp antagonist, D2 potentiator, ClpP mod, Sfp PPTase inh, gsp ag, TRPV1 PAM, Menin MLL FP FL
CC(C)(C)N(Cc1ccccc1)C(=O)COC(=O)CSc1ccc([N+](=O)[O-])cc1
  -5%, -19, -12%, /, -37%[inhibitor], -8, /
CC(=O)NC(CC(=O)OC(C)C(=O)Nc1ncc(Cl)cc1Cl)c1ccccc1 (stereo unspecified)
  8%, 1, -2.1%, -4%, -4%, 6, /
O=C(CSc1nnc(CNc2ccc(F)cc2)o1)c1ccccc1
  3%, -3, /, 9%, 4%[15.4 µM], 3, 0.5
Cc1nc([N+](=O)[O-])cn1CCCCN1C(=O)c2ccccc2C1=O
  -1%, ?, 1.6%, 23%, -15%, ?, -0.7
COc1ccc(CCNC(=O)c2cc(=O)c3cc(C)ccc3o2)cc1
  -30%, -8, /, 14%, -24%[15.4 µM], -12, 3.5
COc1cccc(/C=N/NC(=O)CCc2n[nH]c(=O)[nH]c2=O)c1O
  4%, 5, 10µM*, -8%, ?, -4, -1.0
C#CCOCCOCCOCCNc1nc(N2CCN(C(=O)[C@H](Cc3ccc(O)cc3)n3cc(CCO)nn3)CC2)nc(N2CCN(C(=O)[C@H](Cc3ccc(O)cc3)n3cc(CCO)nn3)CC2)n1
  /, /, /, 13%, /, 9, 2.3
O=C(CCCOC(=O)c1cccnc1Cl)c1ccc(Br)cc1
  ?, 14, 0.7%, /, -6%, /, /
Cc1oc(C)c(C(=O)O)c1COc1ccc(C(=O)O)cc1
  12%, -17, -9.8%, -2%, 4%, 18, 1.4
Brc1cccc(CNCCCN2CCOCC2)c1
  12%, -7, 1.8%, 27%, -27%, 5, -2.7
O=c1[nH]c(CSc2nnc(-c3ccncc3)n2Cc2ccco2)nc2ccccc12
  11%, 5, 1.5%, 5%, ?, 26, -0.7
COc1ccccc1C(CNC(=O)C(C)(C)Oc1ccc(Cl)cc1)N1CCCC1 (stereo unspecified)
  11%, -11, -2.1%, /, -51%[inhibitor], -9, /
CSc1ccc(C(=O)C2CCCN(Cc3ccc(N4CCNC4=O)cc3)C2)cc1 (stereo unspecified)
  -7%, -10, /, 8%, 20%, 16, -3.1
CC(C)OC(=O)/C(=C/c1ccc2c(c1)c1ccccc1n2C)NC(=O)c1ccccc1
  4%, -10, 1.9%, 7%, -12%[15.4 µM], 7, 0.0
O=S(=O)(Nc1ccc(S(=O)(=O)Nc2cccc3ccccc23)cc1)c1ccccc1
  -26%, -9, 2.1%, 11%, -2%, 1, 4.9
COc1ccccc1CNC(=O)CSc1ccc(C(=O)Nc2ccccc2OC)cc1[N+](=O)[O-]
  -19%, -25, 1.2%, 50µM*, -2%[15.4 µM], -4, 0.6
O=C(Nc1cccc(Cl)c1)Nc1c[nH]c(=O)[nH]c1=O
  8%, -4, /, 7%, 1%, 2, -1.4
COCC(C)NC(=O)COCc1cc(-c2ccc3c(c2)OCO3)on1 (stereo unspecified)
  -11%, -2, -15%, 11%, 1%, 27, 8.8
CC(C)Oc1nc(-c2ccc(Cl)cc2)nc2ccccc12
  7%, -18, -1.7%, -3%, -3%, -14, 1.2
Cc1ccc(NC(=O)C[n+]2ccccc2)cc1C
  6%, -44, 0.2%, 13%, -3%, 8, 0.0
O=C(c1cc(-c2ccc(Cl)c(Cl)c2)on1)N1CCCCC1
  10%, -10, -0.8%, -1%, -47%[inhibitor], -13, -0.5
COc1cccc(N(CC(=O)NC2CCCC2)C(=O)CCC(=O)Nc2cc(C)on2)c1
  -17%, -8, /, 20%, -1%[15.4 µM], 6, -0.2
NS(=O)(=O)c1cccc(NC(=O)c2ccccc2NS(=O)(=O)c2ccc(F)cc2)c1
  -8%, -2, /, 18%, 6%[15.4 µM], 16, -6.6
Cc1ccc(S(=O)(=O)N2CCCCC2)cc1NC(=O)CSc1nnc(C2CC2)n1N
  12%, -3, 0.2%, /, 5%[15.4 µM], /, /
Cc1ccc(-c2csc(NCCc3nc4cc(Cl)c(Cl)cc4n3CCCO)n2)cc1
  -8%, 2, -2.4%, /, /, /, /
Cc1ccc(C)c(NC(=O)CN2C(=O)C3CC=CCC3C2=O)c1 (stereo unspecified)
  /, -13, -7.0%, /, ?, /, /
O=C(O)c1ccc(S(=O)(=O)c2ccc3c(c2)C(=O)N(NC(=O)c2ccccc2)C3=O)cc1
  /, -7, /, 0%, 2%[15.4 µM], -26, -0.5
NC(=O)C1CCN(C2CC(=O)N(Cc3cccs3)C2=O)CC1 (stereo unspecified)
  9%, -8, 1.1%, -1%, -8%, -7, 9.6
CCOCCCn1c(=S)[nH]c2cc(C(=O)NCCCN(CC)CC)ccc2c1=O
  -9%, -5, /, 2%, 8%, 105*, 9.2
COc1cc(/C=N/NC(=O)Cc2cccs2)c([N+](=O)[O-])cc1OC
  10%, -8, 1.2%, ?, 19%, 6, /
Cn1c(=O)n(CC(=O)N2CCN(c3nnc(-c4ccccc4)c4ccccc34)CC2)c2ccccc21
  9%, -2, -1.4%, -9%, 0%, ?, 3.1
CCn1c(=O)c(C(=O)NCc2ccc3c(c2)OCO3)c(O)c2ccccc21
  -4%, -7, -2.4%, 11%, 13%[15.4 µM], ?, 6.0
Cc1ccc(CS(=O)(=O)Cc2ccc(C(=O)NCc3ccccn3)o2)cc1
  -15%, -2, -1.2%, 50µM*, -23%, 12, -26
Cc1ccc2nc(N(CCCN(C)C)C(=O)c3ccco3)sc2c1
  9%, -23, -3.6%&-0.8%, 1%, 23%, -2, -4.2
CCOC(=O)c1c(C)[nH]c(C(=O)OC(C)C(=O)Nc2ccc(C)cc2)c1C (stereo unspecified)
  /, 3, 0.1%, /, -81%[inhibitor], /, /
CCOC(=O)c1cc(/C(C)=N/OC(=O)c2ccc(C(C)(C)C)cc2)on1
  6%, -3, 1.3%, 13%, 27%, /, 0.4
COc1ccccc1CNc1cc(CSc2ccc(Cl)cc2)nc(C)n1
  -21%, -32, -1.5%, -14%, -2%, ?, -2.9
CCCCn1c(N)c(N(CCC(C)C)C(=O)c2ccc(N3CCCC3=O)cc2)c(=O)[nH]c1=O
  11%, -10, ?, /, 0%, -7, /
Cc1nnc(SCc2cccc(Cl)c2)n(N)c1=O
  -6%, -3, /, 0%, 32%[15.4 µM], -6, -5.0
COC(=O)c1ccc(NC(=O)c2cc(-c3ccncc3)nc3ccccc23)cc1
  -18%, 0, -1.6%, /, ?, 1, /
CN1CCN(CCCNC(=O)C2CC(=O)N(C3CCCCC3)C2)CC1 (stereo unspecified)
  1%, 6, -0.3%, 11%, 11%, -14, 3.7
COc1ccccc1C(=O)N1CCN(C(=O)Cc2ccccc2)CC1
  10%, -8, /, 19%, ?, -12, -0.2
COC(=O)n1c(SC)nc2ccccc21
  1%, -8, 1.3%, -11%, 11%, /, 6.2
